TRPV1 PAM = HTS Assay for Compounds that Act as Potentiators of the Vanilloid Receptor 1; Transient receptor potential cation channel subfamily V member 1 (Homo sapiens), Q8NER1; TRPV1-expressing cells, Fluo-8 calcium influx, capsaicin EC20 potentiation; host cell line not named in the record; control for the full effect not named in the record; potentiation, % at 8.33 µM; 0.02% of 320,000 active; AID 540277, 2011; active means potentiation above 80%; inconclusive means 30% to 80%; inactive means below 30%; also: 0% is about no effect
Target sequence (Q8NER1 whole entry, looked up): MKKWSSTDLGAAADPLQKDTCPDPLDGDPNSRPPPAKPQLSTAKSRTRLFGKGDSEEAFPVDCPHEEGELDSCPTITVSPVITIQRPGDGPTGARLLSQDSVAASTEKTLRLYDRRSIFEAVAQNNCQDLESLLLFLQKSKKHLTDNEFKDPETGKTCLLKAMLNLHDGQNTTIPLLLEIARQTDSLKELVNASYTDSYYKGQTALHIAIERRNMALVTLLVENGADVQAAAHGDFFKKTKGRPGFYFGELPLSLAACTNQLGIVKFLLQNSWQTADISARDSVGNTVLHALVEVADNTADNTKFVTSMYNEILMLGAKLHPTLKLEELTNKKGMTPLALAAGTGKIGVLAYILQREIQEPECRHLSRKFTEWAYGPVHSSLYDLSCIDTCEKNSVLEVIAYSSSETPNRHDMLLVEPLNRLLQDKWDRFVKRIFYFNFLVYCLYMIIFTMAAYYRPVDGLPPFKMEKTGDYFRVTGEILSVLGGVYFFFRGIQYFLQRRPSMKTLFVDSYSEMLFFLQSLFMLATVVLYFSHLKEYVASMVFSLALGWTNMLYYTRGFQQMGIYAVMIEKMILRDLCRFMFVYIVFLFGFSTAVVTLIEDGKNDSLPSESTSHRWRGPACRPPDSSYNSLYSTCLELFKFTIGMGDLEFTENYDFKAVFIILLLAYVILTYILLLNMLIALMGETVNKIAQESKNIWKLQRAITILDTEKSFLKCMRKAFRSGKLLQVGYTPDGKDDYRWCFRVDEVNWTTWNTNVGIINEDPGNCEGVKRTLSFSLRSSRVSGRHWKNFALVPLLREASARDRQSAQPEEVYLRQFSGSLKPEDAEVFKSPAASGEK
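TRPV1-expressing cells were cultured overnight at 35.5C and loaded with Fluo-8 calcium dye for 40 to 90 min at room temperature. After a 10 s baseline, compound was added and calcium influx was read kinetically for 3 min (ex 480/em 520 nm).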
Sfp PPTase inh = qHTS Assay for Inhibitors of Bacillus subtilis Sfp phosphopantetheinyl transferase (PPTase). 4'-phosphopantetheinyl transferase ffp (Bacillus subtilis), Q9F4F7. Biochemical Sfp PPTase activity, qHTS. Potency, µM, without a hit: max response, negative = inhibition, usual class: inhibitors. 3.5% of 310,000 active; active = well fitted inhibition curve with a large enough effect; inconclusive = small, poorly fitted or top-dose-only effect, or another doubt; inactive = no such curve, though single readings can be large or run the other way;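 also: the enzyme is Sfp with the accession as filed and its product quenches rhodamine fluorescence; potency is read from the fitted curve at half-maximal effect; 0% = enzyme reaction without inhibitor and -100% = no enzyme wells; top concentration of the series not given in the record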
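Fluorescence-quenching assay: 15 nM Sfp-PPTase preincubated 15 min at room temperature with compound, then 5 uM rhodamine-CoA and 12.5 uM BHQ-2-labelled YbbR peptide added. Fluorescence (ex 525/em 598 nm) read at start and after 30 min; difference gives rate.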
D2 PAM = Beta-Arrestin HTS for Positive Allosteric Modulators of the Human D2 Dopamine Receptor: Potentiators; D(2) dopamine receptor (Homo sapiens), P14416; DiscoveRx D2 beta-arrestin cells, luminescence, 90 min; 100% = 57 uM dopamine signal; potentiation, % (concentration not given with the values); 0.23% of 360,000 active; AID 624464, 2012; active = potentiation of 50% or more; inconclusive = 30% to 50%; inactive = 30% or less;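 also: compound concentration not given in the record; tested on top of an EC20 dose of dopamine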
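PathHunter D2 cells, attached overnight at 37 deg C, received compound in DMSO plus dopamine at EC20 (50 nM final) for 90 min at 37 deg C. Beta-arrestin recruitment was read as luminescence after 1 h with detection reagent at ambient temperature.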
D2 ag = Beta-Arrestin HTS for Positive Allosteric Modulators of the Human D2 Dopamine Receptor: Agonists; D(2) dopamine receptor (Homo sapiens), P14416; activation, % (test concentration not listed); 0.084% of 360,000 active; DiscoveRx PathHunter D2 beta-arrestin, luminescence, 90 min; 100% = 57 uM dopamine signal; in the data active = activation above about 40%; inconclusive = about 15% to 40%; inactive = below about 15%; also: compound concentration not given in the record; the text of the record calls up to 30% inactive
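DiscoveRx PathHunter D2 beta-arrestin cells (2,100/well) attached overnight, then compound-stimulated 90 min at 37 C in HBSS/10 mM HEPES/0.1% Tween-20 buffer; beta-galactosidase complementation read by luminescence after 1 h at ambient temperature. Dopamine 57 uM final (EC100) as control.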
CtBP-E1A blk = qHTS Assay for Inhibitors of the CtBP/E1A Interaction; AID 651724, 2012; CtBP / adenovirus E1A interaction (AlphaScreen); 0.49% of 340,000 active; activity change, % (no concentration beside the values); AlphaScreen GST-E1A/His-CtBP binding, 1536-well; stronger effect = lower value; control for the full effect not named in the record; in the data active means activity change below about -65%; inconclusive means about -30% to -65%; inactive means above about -30%; also: % is scaled to controls: 0 for no effect and ±100 for the full control effect; compound concentration not given in the record
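Homogeneous bead-based format: GST-tagged E1A captured on glutathione donor beads, His-tagged CtBP on nickel acceptor beads; compounds precede bead addition by 2 h at 37 °C.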
PINK1 modulator = A Quantitative High throughput Screen to Identify Chemical Modulators of PINK1 Expression; PINK1 immunofluorescence, high-content cytometry, 24 h; Potency, µM (top dose mostly 76.6 µM), for the others: at the top dose activation (PINK1 increase), hits mostly activators; 0.2% of 410,000 active; active = well fitted activation curve with a large enough effect; inconclusive = small, poorly fitted or top-dose-only effect; inactive = flat fitted curve, though single readings scatter; cell line not stated here;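 also: potency is read from the fitted curve at half-maximal effect; % of control where 0% means no effect; nearly all actives have a fitted effect of over 65% in size; a mitochondrial uncoupler was the plate control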
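Measures PINK1 amount and localization on or inside mitochondria by immunofluorescence. Stable cells get compounds at 5 concentrations for 24 hours before fixation and staining; CCCP controls included.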
Six1-Eya2 inh = qHTS Assay for Inhibitors of the Six1/Eya2 Interaction | Homeobox protein SIX1 (Homo sapiens) + Protein phosphatase EYA2 (Homo sapiens), … | AlphaScreen GST-Six1/His-Eya2 binding, biochemical; stronger effect = lower value; control for the full effect not named in the record | activity change, % (no concentration beside the values) | 0.56% of 360,000 active | AID 651725, 2012; in the data active = activity change below about -65%; inconclusive = about -30% to -65%; inactive = above about -30%; also: % is scaled to controls: 0 for no effect and ±100 for the full control effect; compound concentration not given in the record
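AlphaScreen with GST-Six1 and His-Eya2 (5X mix: 250 nM and 500 nM), glutathione donor and nickel acceptor beads; buffer 50 mM Tris pH 8.0, 300 mM NaCl, 1 mM TCEP; 1 h at 37 C in the dark.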
* marks the source's active call; other numbers are inactive results; ? = inconclusive; nt = no result given; & = joins results of further samples; [ ] = remark or other dose.

SMILES | TRPV1 PAM | Sfp PPTase inh | D2 PAM | D2 ag | CtBP-E1A blk | PINK1 modulator | Six1-Eya2 inh
Cc1cc(OC(C)C(=O)NC(Cc2c[nH]c3ccc(O)cc23)C(=O)O)c2c(C)c(C)c(=O)oc2c1 (stereo not given) | -5 | 11% | -12 | 7.0 | -7 | 1.7% | -10
COC(=O)NNC(=O)c1ccccc1C | 6 | 14% | 3 | -1.4 | 6 | 0.2%[38.3 µM] | -11
Cc1ccc(CNC(=O)c2cc(C)nn2-c2ccccc2)cc1 | 8 | 16% | -2 | 3.1 | 3 | -0.2% | 2
C/C(=N/OC(=O)c1ccccc1)c1oc(C)nc1C | 9 | 15% | -14 | 0.7 | -16 | -0.3% | 5
Cc1ccc(O)c(CNc2cccc3cccnc23)c1 | 20 | ? | 3 | 11 | ? | 4.4% | -22
Cc1ccc2nc(SC(C)C(=O)N3CC(C)OC(C)C3)[nH]c2c1 (stereo not given) | -12 | 2% | 0 | 0.8 | 5 | -0.1% | 0
CCc1ccc(S(=O)(=O)NCCc2cn3cccc(C)c3n2)s1 | 4 | 14% | -8 | 4.0 | nt | -0.2% | 4
O=C(CO/N=C1\CCCc2nonc21)Nc1ccccc1Cl | 18 | 18% | -9 | -5.0 | 5 | 2.1% | 1
CCOC(Cn1c(SCC(=O)Nc2cc(C)on2)nc2ccccc2c1=O)OCC | -7 | -3% | 1 | 4.6 | 1 | 8.4% | 2
CCCn1nnnc1NCc1ccccc1OCC | 2 | 6% | -1 | 5.2 | -26 | 2.9% | -3
O=C(NCc1ccc(F)cc1)c1ccc(S(=O)(=O)N2CCCCC2)cc1 | -24 | nt | 0 | 2.1 | 12 | 2.2% | 9
O=C(CN1C(=O)C2CC=CCC2C1=O)Nc1nc2ccccc2[nH]1 (stereo not given) | -1 | -4% | -6 | -0.4 | 0 | -2.8% | -3
COc1ccc(N2C(=O)CC(NCc3cccc(F)c3)C2=O)cc1 (stereo not given) | 0 | 25% | -9 | -4.5 | 12 | 1.9% | 11
Cc1cc(C(=O)Nc2cccc(C)c2C)n(-c2ccccc2)n1 | 3 | 1% | -8 | 9.3 | 7 | 2.1% | -1
Cc1cc(NS(=O)(=O)c2ccc(NC(=O)CSc3nc4ncc(Cl)cc4[nH]3)cc2)nc(C)n1 | 13 | 24% | -9 | -2.5 | -12 | 0.1% | ?
CCCN(CCC)S(=O)(=O)c1ccc(C(=O)O)cc1 | 10 | -6%&23%&8%&6% | 5 | 1.6 | 7 | 1.8% | -5
COC(=O)C1=C(N)c2c(F)cccc2C1(C#N)c1ccc(F)cc1 (stereo not given) | -23 | 3% | -17 | -3.2 | -2 | 0.5% | 0
Cc1ccc(C(=O)NC(=S)NNC(=O)COc2ccccc2C)cc1 | -1 | -50% | -8 | -3.6 | -3 | 4.3% | 10
CCOc1ccccc1NC(=O)CCn1nc(C)c(S(=O)(=O)N2CCCCC2)c1C | 5 | 11% | -12 | -3.7 | 1 | -0.9%&-0.9% | 2
Cc1ccccc1OCc1nnc(SCC(=O)Nc2ccc3c(c2)OCO3)n1C | 3 | 16% | 3 | -2.7 | -6 | 0.0%[38.3 µM] | -1
NC(=O)Cn1c(=O)n(Cc2ccco2)c(=O)c2c3c(sc21)CCCCC3 | ? | 10µM* | -12 | -1.0 | -15 | -0.3%[38.3 µM] | -25
O=C1C(=O)N(C2CCCC2)C(=O)N1Cc1c(F)cccc1Cl | -13 | 18% | -3 | 0.0 | nt | -0.4% | 0
CC(=O)N1CCN(C(=O)c2cc(-c3ccc(Cl)s3)nc3ccccc23)CC1 | -7 | nt | -1 | -1.5 | -4 | 14% | -5
COc1ccc(N2C(=O)CC(N3CCC(O)(c4ccc(Br)cc4)CC3)C2=O)cc1 (stereo not given) | -17 | 14% | -1 | -0.6 | 2 | 0.0% | -6
COc1cc(NC(=O)Cn2cnc(C(=O)Nc3ccc(C)c(C)c3)n2)cc(OC)c1OC | nt | nt | -2 | -0.1 | -8 | 1.7% | -2
COc1cc(C2N(c3cc(C)on3)C(=O)C3CCCN32)cc(OC)c1OC (stereo not given) | -6 | 14% | -8 | 0.4 | -4 | 2.8% | 5
Clc1ccc(C2=Nn3c(nnc3-c3cccnc3)SC2)s1 | 2 | 12% | -26 | -1.0 | -22 | 1.8% | -17
Cc1nc(SCC(=O)Nc2ccnc3ccccc23)n[nH]1 | 1 | 18% | -4 | -2.6 | 6 | -0.7% | 3
O=S(=O)(Cc1ccccc1Cl)NCc1ccccc1 | 17 | 14% | -2 | -5.6 | 1 | 0.6% | 8
Nc1ccccc1SC(CC(=O)c1ccccc1)c1ccccc1 (stereo not given) | nt | nt | -26 | -8.2 | 1 | 1.9% | -19
Clc1ccccc1Cn1nnc2c(NCC3CC3)ncnc21 | ? | -11% | 3 | 0.8 | -6 | 0.8%[38.3 µM] | -1
S=C(NCCCc1ccccc1)NC1CCCCC1 | -8 | 13% | -21 | -3.3 | 1 | 3.1% | -1
COc1cc(OC)c(OC)cc1CNC(=O)CCN1C(=O)c2cccc([N+](=O)[O-])c2C1=O | 2 | 10% | -7 | -0.4 | 4 | -0.6% | -2
C=CCOc1cccn2c(N(C=O)Cc3ccccc3)c(CC)nc12 | nt | nt | -1 | 0.9 | 10 | 2.1% | -2
COc1ccccc1Nc1nc(-c2sc(NC(=O)c3ccccc3)nc2C)cs1 | 9 | 1% | -8 | -2.2 | 21 | 12% | 17
Cn1c(SCc2cccc(Br)c2)nc2ccccc2c1=O | 3 | -21% | 2 | 0.5 | 52 | 11% | 32
O=C(/C=C/[C@H]1O[C@@H](n2cnc3c(NC(=O)c4ccccc4)ncnc32)[C@H](O)[C@@H]1O)NCC1CCCCC1 | nt | nt | 0 | -2.9 | 5 | 0.6% | 1
CC(=O)c1cccc(NC(=O)CCN2C(=O)C3C4CCC(C4)C3C2=O)c1 (stereo not given) | 4 | 3% | -12 | -0.8 | -2 | 0.5% | 14
CC(C)c1ccc(NC(=O)CSc2nc(-c3ccccc3F)nc3nc[nH]c23)cc1 | 16 | 7% | 5 | -4.2 | 10 | 1.5% | -8
Cc1ccccc1-c1nc(CS(=O)CC(=O)NCc2ccccn2)c(C)o1 (stereo not given) | 1 | -1% | -10 | -1.8 | -3 | 0.2% | -7
CCOC(=O)CSc1nc(C(C)C)nc2sc(C)c(C)c12 | -17 | -13% | -9 | 0.3 | 12 | 14% | 22
CCC(=O)Nc1ccc(NC(=O)CSc2nnnn2-c2ccc3c(c2)OCCO3)cc1 | -11 | 0% | -8 | 1.7 | -1 | 1.2% | -1
CC(C)(C)OC(=O)NCCCC[C@@H](C(=O)NCCCCCCCCCCC(=O)N1CCN(C(=O)OC(C)(C)C)CC1)n1cc(CCO)nn1 | -13 | nt | -18 | 7.6 | -13 | 1.4% | 0
CC(=O)Nc1ccc(S(=O)(=O)N2CCc3c(Cl)cccc3C2)cc1 | 5 | 7% | 3 | 6.9 | 0 | 13% | 33
O=P1(Nn2cnnc2)C=C(c2ccccc2)OC(c2ccccc2)=C1 | 2 | 12% | -5 | -1.3 | 7 | nt | -3
CC1CN(S(=O)(=O)c2cccc(C(=O)OCC(=O)NCc3ccccc3)c2)CC(C)O1 (stereo not given) | -5 | nt | 0 | -0.5 | nt | 0.1% | 3
COCCCNC(=O)C(=O)NC1CCCCC1C (stereo not given) | 8 | 12% | -12 | -19 | 7 | 1.2% | 4
C#CCN1C(=O)C(O)(CC(=O)/C=C/C=C/c2ccccc2)c2ccccc21 (stereo not given) | 5 | -29% | -15 | -4.2 | nt | 7.7% | -5

4 compounds from above, limited to Sfp PPTase inh, D2 ag and Six1-Eya2 inh.
Molecule | Sfp PPTase inh | D2 ag | Six1-Eya2 inh
Cc1ccccc1-c1nc(CS(=O)CC(=O)NCc2ccccn2)c(C)o1 (stereo not given) | -1% | -1.8 | -7
CCOC(=O)CSc1nc(C(C)C)nc2sc(C)c(C)c12 | -13% | 0.3 | 22
CCC(=O)Nc1ccc(NC(=O)CSc2nnnn2-c2ccc3c(c2)OCCO3)cc1 | 0% | 1.7 | -1
CC(C)(C)OC(=O)NCCCC[C@@H](C(=O)NCCCCCCCCCCC(=O)N1CCN(C(=O)OC(C)(C)C)CC1)n1cc(CCO)nn1 | nt | 7.6 | 0

Next part:
SMILES | TRPV1 PAM | Sfp PPTase inh | D2 PAM | D2 ag | CtBP-E1A blk | PINK1 modulator | Six1-Eya2 inh
O=[N+]([O-])c1ccccc1S(=O)(=O)Oc1ccc(C(=S)N2CCOCC2)cc1 | -3 | -7% | 9 | -3.9 | -22 | 4.7% | -18
O=C(Nc1ncccc1O)c1ccc(Cl)c(S(=O)(=O)N2CCCCC2)c1 | -2 | nt | -22 | -2.2 | 0 | -1.2% | -4
COc1cccc(CNC(=O)CCNS(=O)(=O)c2cccc3nonc23)c1 | 22 | 14% | 2 | 7.9 | 3 | 0.8% | -1
COc1ccc(C(C#N)=C2C=CC(=NO)C(C)=C2Cl)cc1 | nt | nt | ? | 11 | 27 | 3.1% | -28
O=c1ncn(-c2cccc(Cl)c2)c2ccccc12 | nt | nt | -2 | -5.2 | 6 | 0.0% | 13
NC(=S)N/N=C/c1ccc(-c2ccccc2)o1 | 3 | 4% | -3 | -3.7 | -2 | 1.4% | -8
Cc1cccc(OCC(=O)NCC(=O)N/N=C/c2ccccc2)c1 | 8 | 22% | -3 | -0.4 | 3 | 5.4% | -2

In the list so far, these contain a furan ring, fused or not.
SMILES | TRPV1 PAM | Sfp PPTase inh | D2 PAM | D2 ag | CtBP-E1A blk | PINK1 modulator | Six1-Eya2 inh
NC(=O)Cn1c(=O)n(Cc2ccco2)c(=O)c2c3c(sc21)CCCCC3 | ? | 10µM* | -12 | -1.0 | -15 | -0.3%[38.3 µM] | -25
NC(=S)N/N=C/c1ccc(-c2ccccc2)o1 | 3 | 4% | -3 | -3.7 | -2 | 1.4% | -8
